Six1-Eya2 blk – Six1/Eya2 interaction inhibition | AID 651725 | Q15475+O00167 | activity change, % (concentration not given with the values) | 360,000 tested, 0.56% active | AlphaScreen GST-Six1/His-Eya2 binding, biochemical; hits give low values; control for the full effect not named in the record; in the data active = activity change below about -65%; inconclusive = about -30% to -65%; inactive = above about -30%; also: % is scaled to controls: 0 for no effect and ±100 for the full control effect
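AlphaScreen luminescence read after one hour at 37 °C in darkness. Pin-transferred compounds met GST-Six1 and His-Eya2 protein (5X stock 250 nM/500 nM) plus glutathione donor and Ni-chelate acceptor beads (5X, 50 ug/mL).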
D2 agonist – activates the human D2 dopamine receptor | DiscoveRx PathHunter D2 beta-arrestin, luminescence, 90 min; 100% = 57 uM dopamine signal | activation, % (test concentration not listed) | 360,000 tested, 0.084% active | AID 624465; in the data active = activation above about 40%; inconclusive = about 15% to 40%; inactive = below about 15%; also: compound concentration not given in the record; the text of the record calls up to 30% inactive
Target sequence (P14416 whole entry, looked up): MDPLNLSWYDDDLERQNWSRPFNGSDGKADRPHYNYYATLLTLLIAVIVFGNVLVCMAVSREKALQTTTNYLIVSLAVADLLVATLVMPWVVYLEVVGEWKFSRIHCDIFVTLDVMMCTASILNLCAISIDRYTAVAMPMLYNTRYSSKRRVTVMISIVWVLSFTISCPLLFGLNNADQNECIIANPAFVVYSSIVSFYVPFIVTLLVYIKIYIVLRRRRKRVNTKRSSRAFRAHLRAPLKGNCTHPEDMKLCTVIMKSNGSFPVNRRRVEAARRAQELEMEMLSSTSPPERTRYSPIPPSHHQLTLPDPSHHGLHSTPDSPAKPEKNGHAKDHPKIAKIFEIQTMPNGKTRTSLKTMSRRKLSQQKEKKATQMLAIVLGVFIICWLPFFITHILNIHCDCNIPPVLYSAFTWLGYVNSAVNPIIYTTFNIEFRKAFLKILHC
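Agonist mode: compounds alone added to overnight-plated D2 PathHunter cells for 90 min at 37 C, with 57 uM final dopamine (EC100) defining full response. Beta-arrestin recruitment detected by chemiluminescent reagent, read after 1 h at ambient temperature.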
PINK1 modulator – changes PINK1 expression | AID 624263 | Potency, µM (top dose mostly 76.6 µM), without a hit: at the highest dose activation (PINK1 increase), hits mostly activators | PINK1 immunofluorescence, high-content cytometry, 24 h | 410,000 tested, 0.2% active; active = well fitted activation curve with a large enough effect; inconclusive = small, poorly fitted or top-dose-only effect; inactive = flat fitted curve, though single readings scatter; cell line not stated here;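 also: potency is read from the fitted curve at half-maximal effect; % of control where 0% means no effect; nearly all actives have a fitted effect of over 65% in size; a mitochondrial uncoupler was the plate control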
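PINK1 protein, normally rapidly degraded, was detected by immunofluorescence after 24 hour compound treatment of a stable cell line. Titration data (5 concentrations) came from laser-scanning cytometry, with CCCP-treated wells as controls.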
CtBP-E1A blk – inhibitors of CtBP/E1A interaction. AlphaScreen GST-E1A/His-CtBP binding, 1536-well; hits give low values; control for the full effect not named in the record. activity change, % (test concentration not listed). 340,000 tested, 0.49% active; in the data active means activity change below about -65%; inconclusive means about -30% to -65%; inactive means above about -30%; also: % is scaled to controls: 0 for no effect and ±100 for the full control effect; compound concentration not given in the record
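AlphaScreen with 125 nM GST-E1A and 125 nM His-CtBP (5X stocks) in Tris pH 8.0, 300 mM NaCl, BSA, Tween 20, TCEP. Compounds preincubated 2 h at 37 deg C, then glutathione donor/nickel acceptor beads added for 1 h at 37 deg C in dark.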
TRPV1 PAM – human TRPV1 potentiation | Q8NER1 | TRPV1-expressing cells, Fluo-8 calcium influx, capsaicin EC20 potentiation; host cell line not named in the record; control for the full effect not named in the record | potentiation, % at 8.33 µM | 320,000 tested, 0.02% active | AID 540277; active means potentiation above 80%; inconclusive means 30% to 80%; inactive means below 30%; also: 0% is about no effect
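Fluo-8 calcium influx in TRPV1-expressing cells, kinetic read (ex 480/em 520 nm). Compound added and read 3 min for agonist activity, followed by capsaicin at EC20 final and 2 min further read for enhancement.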
Sfp inh – blocks B. subtilis Sfp PPTase activity. 310,000 tested, 3.5% active. Biochemical Sfp PPTase activity, qHTS. AID 1490. Potency, µM, without a hit: max response, negative = inhibition, hits mostly inhibitors. Q9F4F7; active = well fitted inhibition curve with a large enough effect; inconclusive = small, poorly fitted or top-dose-only effect, or another doubt; inactive = no such curve, though single readings can be large or run the other way;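 also: the enzyme is Sfp with the accession as filed and its product quenches rhodamine fluorescence; potency is read from the fitted curve at half-maximal effect; 0% = enzyme reaction without inhibitor and -100% = no enzyme wells; top concentration of the series not given in the record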
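Fluorescence-quenching assay with 15 nM Sfp, 5 uM rhodamine-CoA and 12.5 uM BHQ-2-labelled ybbR peptide in pH 7.6 Hepes/MgCl2 buffer. Enzyme was pre-incubated with compound for 15 min at room temperature. Rate was taken from the 30-min fluorescence change (525/598 nm).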
D2 potentiator – potentiates the human D2 dopamine receptor allosterically; P14416; DiscoveRx D2 beta-arrestin cells, luminescence, 90 min; 100% = 57 uM dopamine signal; potentiation, % (no concentration beside the values); 360,000 tested, 0.23% active; AID 624464; active = potentiation of 50% or more; inconclusive = 30% to 50%; inactive = 30% or less;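 also: compound concentration not given in the record; tested on top of an EC20 dose of dopamine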
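D2 cells co-treated with compound plus 50 nM dopamine (EC20) for 90 min at 37 deg C to detect potentiation. Beta-arrestin recruitment was read as enzyme-fragment luminescence after 1 h at ambient temperature. Full response was set by 57 uM dopamine.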
* = called active by the depositor; ? = inconclusive; . = not tested or not shown; [ ] = remark or other dose.

1) CC(C)=CCC/C(C)=C/C=N/NC(=O)c1ccccc1[N+](=O)[O-]
2) Cc1oc2nc(SCC(=O)Nc3ccc(S(N)(=O)=O)cc3)nc(NC(=O)c3ccccc3)c2c1C
3) CSc1cnnc2ccccc12
4) COc1cccc(CCNS(=O)(=O)CCNC(=O)c2cccc(OC)c2)c1
5) COCc1ccc(C(=O)OC(C)C(=O)Nc2c(C)n(C)n(-c3ccccc3)c2=O)cc1 (stereo not given)
6) O=C(COc1ccc(Br)cc1)N1CCN(c2ncccn2)CC1
7) CCCCn1nc2cc(C(=O)NCc3ccc(OC)cc3)ccc2c1OCC
8) CCOC(=O)c1c(C)n(C)c2ccc(OC(=O)c3ccc([N+](=O)[O-])cc3)cc12
Assay by compound,1,2,3,4,5,6,7,8
Six1-Eya2 blk,8,0,0,-4,6,8,-5,6
D2 agonist,-2.8,0.1,-1.6,-1.1,3.3,-1.8,-1.7,-0.6
PINK1 modulator,-0.2%,?,-1.8%,-4.1%,-1.8%,0.8%,0.1%,-0.7%
CtBP-E1A blk,1,4,0,5,10,.,4,5
TRPV1 PAM,2,3,.,12,?,-4,-22,3
Sfp inh,20%,0%,.,.,.,.,16%,8%
D2 potentiator,-30,-8,-4,-4,-1,-1,-6,0

9) COCCCNC(=O)c1cc(OC)c(OC)c(OC)c1
10) CC(C)CCNC(=O)c1cc(S(=O)(=O)N2CCc3ccccc32)cn1C
11) COc1ccccc1CN(C)C(=O)c1ccc(S(=O)(=O)NCc2ccco2)cc1
12) COc1ccc([N+](=O)[O-])cc1NC(=O)C(C)OC(=O)c1cccnc1 (stereo not given)
13) COc1cc2oc3ccccc3c2cc1N(CC(=O)N(C)C)S(=O)(=O)c1ccccc1
14) COc1ccc(/C(N)=N/OC(=O)c2cccc([N+](=O)[O-])c2C)cc1OC
15) Cc1ccccc1S(=O)(=O)NC(=O)C1(C)CCN1C(=O)c1c(C)noc1C (stereo not given)
16) O=C(N/N=C/c1ccncc1)c1cc2ccccc2cc1O
Assay by compound,9,10,11,12,13,14,15,16
Six1-Eya2 blk,8,1,-6,-3,17,4,7,-6
D2 agonist,-1.2,-1.6,-3.2,-2.1,-4.4,?,-3.9,-5.1
PINK1 modulator,-0.3%,4.8%,0.5%,0.4%,0.3%,1.6%,0.4%,1.4%
CtBP-E1A blk,4,1,5,5,0,0,10,-3
TRPV1 PAM,4,30,9,-3,-24,-3,.,-6
Sfp inh,8%,12%,.,9%,-18%,21%,.,8%
D2 potentiator,13,1,-7,-4,6,93*,-7,-15

17) N#CC1(NC(=O)COc2ccc(C(N)=O)cc2)CCCC1
18) COc1ccc(N2C(=O)C(C)(C)C2c2c(O)ccc3ccccc23)cc1 (stereo not given)
19) CN1CCN(C(=O)CCN2C(=O)c3ccccc3S2(=O)=O)CC1
20) CC(C)CN(Cc1cc(=O)oc2cc(-c3ccccc3)c(O)cc12)CC(C)C
21) CCOCCn1cnc2sc(C(=O)NCCCN3CCOCC3)c(C)c2c1=O
22) CCOc1ccc(/C=N/n2nnnc2N)cc1O
23) CCOC(=O)C1=C(O)/C(=C/c2cccc(OC)c2O)N=C1C
24) CCOC(=O)c1cc2c(=O)n3ccccc3nc2n(CCCOC)c1=NC(=O)C(C)(C)C
Assay by compound,17,18,19,20,21,22,23,24
Six1-Eya2 blk,1,-10,5,6,-7,-10,-6,-1
D2 agonist,5.8,-4.8,1.6,13,-7.3,0.5,-6.5,-4.2
PINK1 modulator,1.7%,?,1.7%,?,1.2%,0.8%,-0.1%,-1.5%
CtBP-E1A blk,.,-9,-26,9,2,-12,1,4
TRPV1 PAM,.,-7,14,-2,12,.,11,2
Sfp inh,.,18%,.,11%,17%,-10%,-12%,29%
D2 potentiator,-2,-9,11,19,-5,6,-10,-9

Rewritten as a markdown table: entries from further up
| no. | molecule | Six1-Eya2 blk | D2 agonist | PINK1 modulator | CtBP-E1A blk | TRPV1 PAM | Sfp inh | D2 potentiator |
| --- | --- | --- | --- | --- | --- | --- | --- | --- |
| 16 | O=C(N/N=C/c1ccncc1)c1cc2ccccc2cc1O | -6 | -5.1 | 1.4% | -3 | -6 | 8% | -15 |
| 17 | N#CC1(NC(=O)COc2ccc(C(N)=O)cc2)CCCC1 | 1 | 5.8 | 1.7% | . | . | . | -2 |
| 18 | COc1ccc(N2C(=O)C(C)(C)C2c2c(O)ccc3ccccc23)cc1 (stereo not given) | -10 | -4.8 | ? | -9 | -7 | 18% | -9 |
| 19 | CN1CCN(C(=O)CCN2C(=O)c3ccccc3S2(=O)=O)CC1 | 5 | 1.6 | 1.7% | -26 | 14 | . | 11 |
| 20 | CC(C)CN(Cc1cc(=O)oc2cc(-c3ccccc3)c(O)cc12)CC(C)C | 6 | 13 | ? | 9 | -2 | 11% | 19 |
| 21 | CCOCCn1cnc2sc(C(=O)NCCCN3CCOCC3)c(C)c2c1=O | -7 | -7.3 | 1.2% | 2 | 12 | 17% | -5 |

More results
25) COc1ccc(-c2nc3ccccc3c(=O)n2NC(=O)Cc2ccccc2)cc1
26) O=c1oc2ccccc2c2c1C(O)CO2 (stereo not given)
27) COc1ccc(CN2CC(C(=O)NCCCN3CCN(C)CC3)CC2=O)cc1 (stereo not given)
28) COc1ccc(NC(=O)NNc2cc(N3CCOCC3)nc(N3CCOCC3)n2)cc1
29) CCCn1c(=N)n(CC(=O)c2cccs2)c2ccccc21
30) CCC(NC(=O)c1cc(COc2ccc(Cl)cc2OC)on1)c1ccncc1 (stereo not given)
31) CCCCSc1cc(C)nc(N)n1
32) CCN(CCO)c1ccc(Nc2cc(-c3ccc(-c4ccccc4)cc3)ncn2)cc1
33) COc1ccc(C2C(C#N)=C(N)SC(N)=C2C#N)cc1OC
34) OC(CCN1CC2CCC(CC2)C1)(Cc1ccccc1)c1ccco1 (stereo not given)
Assay by compound,25,26,27,28,29,30,31,32,33,34
Six1-Eya2 blk,-2,2,5,8,5,-3,0,-22,-8,-10
D2 agonist,-2.5,-1.1,0.5,-1.3,-1.4,0.4,-0.1,7.7,-5.2,5.6
PINK1 modulator,-1.0%,1.1%,0.6%,0.9%,-2.2%[38.3 µM],1.9%,-1.8%,0.2%,3.5%,0.7%
CtBP-E1A blk,-3,-2,2,.,6,0,4,?,0,-3
TRPV1 PAM,17,-3,3,6,5,-2,-3,.,-11,.
Sfp inh,-15%,1%,0%,10%,2%,11%,27%,.,?,.
D2 potentiator,-11,-6,-20,-5,-1,-3,-5,-5,12,-8
